Compound activity as filed in PubChem.
CtBP-E1A blk – qHTS Assay for Inhibitors of the CtBP/E1A Interaction; CtBP / adenovirus E1A interaction (AlphaScreen); AID 651724, 2012; AlphaScreen GST-E1A/His-CtBP binding, 1536-well; stronger effect = lower value; control for the full effect not named in the record; activity change, % (test concentration not listed); actives 0.49% (n = 340,000); in the data active means activity change below about -65%; inconclusive means about -30% to -65%; inactive means above about -30%; further: on the % scale 0 is the no-effect control and ±100 the full control effect; compound concentration not given in the record
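Homogeneous bead-based format: GST-tagged E1A captured on glutathione donor beads, His-tagged CtBP on nickel acceptor beads; compounds precede bead addition by 2 h at 37 °C.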
gsp ag – qHTS for Agonist of gsp, the Etiologic Mutation Responsible for Fibrous Dysplasia/McCune-Albright Syndrome: qHTS | gsp mutant cells, cAMP HTRF, 30 min; control for the full effect not named in the record | Potency, µM (doses to about 76.9 µM), for inactives: top-dose activation (cAMP increase), actives largely listed as activators | actives 0.13% (n = 340,000) | AID 624287, 2012; active = well fitted activation curve with a large enough effect; inconclusive = small, poorly fitted or top-dose-only effect, or another doubt; inactive = no such curve, though single readings can be large or run the other way; cell line not stated here;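 further: phosphodiesterase inhibitor Ro 20-1724 added with compounds to block cAMP breakdown; potency means the concentration at half of the fitted maximal effect; nearly all actives have a fitted effect of over 60% in size; about a fifth of the inactives were tested at one dose only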
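Cells stably selected in G418 were plated at 2000/well, grown 16-24 hr, then given compounds in DMSO with the PDE inhibitor […] (300 uM solution added) for 30 min at 37C; cAMP was read by HTRF.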
Menin MLL FP FL – qHTS Assay for Inhibitors Targeting the Menin-MLL Interaction in MLL Related Leukemias: Competition With Fluorescein Labeled MLL-derived Peptide; 290,000 tested, under 10 active; AID 1766, 2009; Fluorescence polarization, fluorescein-MLL peptide displacement from menin; FP activity change, % at 61.4 µM; inconclusive = falling polarisation curve, or a change in total fluorescence; inactive = total fluorescence flat and polarisation flat or rising; no compound was filed as active; the % refers to the polarisation; negative = inhibition;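 further: % of control where 0% means no effect; inhibitors lower the polarisation; unlabelled MLL peptide was the positive control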
ClpP mod – qHTS Assay for Activators of ClpP | ATP-dependent Clp protease proteolytic subunit (Bacillus subtilis (strain 168)), P80244 | purified B. subtilis ClpP, FRET peptide cleavage, 20 min | Potency, µM (titrated, usually from 57.5 µM), without a hit: at the highest dose activity change, negative = active | actives 1.9% (n = 340,000) | AID 651965, 2013; active = well fitted falling curve with a large enough effect; inconclusive = small, poorly fitted or top-dose-only effect; inactive = no such curve, though single readings can be large or run the other way; further: potency means the concentration at half of the fitted maximal effect; the source files actives as falling curves though it sought activators and does not explain the sign; nearly all actives have a fitted effect of over 65% in size; many hits overshoot -100%
Target sequence (P80244 whole entry, looked up): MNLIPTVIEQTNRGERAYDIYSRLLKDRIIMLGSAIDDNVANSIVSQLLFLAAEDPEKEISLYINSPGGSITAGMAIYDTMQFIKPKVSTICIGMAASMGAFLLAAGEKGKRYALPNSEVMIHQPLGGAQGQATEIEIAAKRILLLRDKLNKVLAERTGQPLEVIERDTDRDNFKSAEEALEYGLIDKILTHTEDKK
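FRET quenching reversal measured ClpP activation: 10 microg/mL B. subtilis ClpP at pH 8 with the FRET-FV decapeptide, read at 430 nm after 320 nm excitation. The 20-min minus 0-min signal was scaled between DMSO/no-enzyme wells and ADEP (5.8 microM final).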
gsp antag – qHTS for Antagonists of gsp, the Etiologic Mutation Responsible for Fibrous Dysplasia/McCune-Albright Syndrome: qHTS. gsp-mutant cells, cAMP HTRF, 30 min; control for the full effect not named in the record. Potency, µM (top dose mostly 76.9 µM), for the others: at the highest dose activity change, negative = inhibition, hits mostly inhibitors. actives 0.4% (n = 340,000); active = falling curve of any shape with a large fitted effect; inconclusive = falling curve, mostly with a smaller effect; inactive = flat or rising curve; cell line not stated here;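 further: intracellular cAMP measured with PDE inhibitor Ro 20-1724 present during compound exposure; potency means the concentration at half of the fitted maximal effect; on the % scale 0 is the no-effect control and ±100 the full control effect; nearly all actives have a fitted effect of over 65% in size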
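Cells, 2000/well, grown 16–24 h in DMEM 10% FBS with 0.5 mg/ml G418, then compounds plus […] (300 uM addition stock), 30 min at 37C. cAMP read by HTRF (cAMP-d2 and anti-cAMP antibody-K in lysis buffer) after 30 min RT.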
Sfp PPTase inh – qHTS Assay for Inhibitors of Bacillus subtilis Sfp phosphopantetheinyl transferase (PPTase); 4'-phosphopantetheinyl transferase ffp (Bacillus subtilis), Q9F4F7; Biochemical Sfp PPTase activity, qHTS; Potency, µM, inactives show max response, negative = inhibition, usual class: inhibitors; actives 3.5% (n = 310,000); active means well fitted inhibition curve with a large enough effect; inconclusive means small, poorly fitted or top-dose-only effect, or another doubt; inactive means no such curve, though single readings can be large or run the other way;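 further: the enzyme is Sfp with the accession as filed and its product quenches rhodamine fluorescence; potency means the concentration at half of the fitted maximal effect; 0% = enzyme reaction without inhibitor and -100% = no enzyme wells; top concentration of the series not given in the record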
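Buffer: 50 mM Hepes-Na pH 7.6, 10 mM MgCl2, 0.01% Nonidet P-40, 0.01% BSA. Enzyme 15 nM, pre-exposed to compound 15 min; substrates then added and fluorescence change tracked over 30 min.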
TRPV1 potentiator – HTS Assay for Compounds that Act as Potentiators of the Vanilloid Receptor 1; TRPV1-expressing cells, Fluo-8 calcium influx, capsaicin EC20 potentiation; host cell line not named in the record; control for the full effect not named in the record; potentiation, % at 8.33 µM; actives 0.02% (n = 320,000); AID 540277, 2011; active means potentiation above 80%; inconclusive means 30% to 80%; inactive means below 30%; further: 0% is about no effect
Target sequence (Q8NER1 whole entry, looked up): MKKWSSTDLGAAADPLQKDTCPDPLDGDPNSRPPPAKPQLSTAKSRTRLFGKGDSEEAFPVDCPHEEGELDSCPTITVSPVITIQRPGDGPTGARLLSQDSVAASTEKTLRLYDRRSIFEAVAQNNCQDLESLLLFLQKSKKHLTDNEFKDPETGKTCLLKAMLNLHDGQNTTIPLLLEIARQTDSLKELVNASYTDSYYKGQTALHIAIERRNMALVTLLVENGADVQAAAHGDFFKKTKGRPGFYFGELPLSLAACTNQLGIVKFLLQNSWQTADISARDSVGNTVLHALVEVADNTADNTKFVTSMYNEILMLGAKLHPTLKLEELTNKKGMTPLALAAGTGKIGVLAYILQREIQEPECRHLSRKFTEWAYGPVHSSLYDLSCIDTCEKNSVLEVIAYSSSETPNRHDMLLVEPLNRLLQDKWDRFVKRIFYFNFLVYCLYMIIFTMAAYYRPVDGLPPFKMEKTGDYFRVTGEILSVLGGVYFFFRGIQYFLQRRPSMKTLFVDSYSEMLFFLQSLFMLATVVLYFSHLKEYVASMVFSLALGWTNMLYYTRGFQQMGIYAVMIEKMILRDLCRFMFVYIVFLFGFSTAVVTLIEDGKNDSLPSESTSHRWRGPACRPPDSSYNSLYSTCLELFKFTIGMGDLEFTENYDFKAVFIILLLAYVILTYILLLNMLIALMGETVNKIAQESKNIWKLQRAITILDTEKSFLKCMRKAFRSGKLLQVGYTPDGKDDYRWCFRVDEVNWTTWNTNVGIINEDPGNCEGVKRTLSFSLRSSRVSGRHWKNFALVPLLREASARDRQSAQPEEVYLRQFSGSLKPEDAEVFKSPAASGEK
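Fluo-8 calcium influx in TRPV1-expressing cells, kinetic read (ex 480/em 520 nm). Compound added and read 3 min for agonist activity, followed by capsaicin at EC20 final and 2 min further read for enhancement.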
Active calls of the source: *; ? = inconclusive; . = no result given; [ ] = remark or other dose.

Fields – CtBP-E1A blk | gsp ag | Menin MLL FP FL | ClpP mod | gsp antag | Sfp PPTase inh | TRPV1 potentiator
CON1C(=O)CN(C(C)=O)C1c1ccc(Cl)cc1Cl (stereo not drawn)
 : 6 | -25% | 3.1 | -9.0% | 5% | 8% | 4
O=C(NCc1ccccc1F)C1CCCN(c2cnccn2)C1 (stereo not drawn)
 : . | -3% | . | 0.7% | 10% | 11% | ?
O=C(COc1c(F)c(F)cc(F)c1F)NNC(=O)CC1CCS(=O)(=O)C1 (stereo not drawn)
 : -1 | 6%[15.4 µM] | . | -1.4% | 3% | . | .
O=C(NCC1CCCO1)c1ccc([N+](=O)[O-])o1 (stereo not drawn)
 : 11 | 34% | . | -0.7% | 12% | 20% | 6
CCC1(CC)C(=O)NC(=O)NC1=NCCc1c[nH]c2ccccc12
 : 2 | -15% | 1.6 | 0.0% | 2% | 10% | -8
COc1cccc(C(=O)Nc2ncc3c(n2)CC(C)CC3=O)c1 (stereo not drawn)
 : 2 | 12% | -0.1 | 1.9% | -1% | 3% | -22
COc1ccccc1-n1cnnc1SCC(=O)N1CCN(C(=O)c2ccco2)CC1
 : 9 | 12% | 0.1 | 1.5% | 11% | 7% | -1
Cc1ccc(N=C2S/C(=C\c3cn(CC(=O)O)c4ccccc34)C(=O)N2C)cc1
 : -7 | 0% | ? | -0.6% | -17% | -18% | 2
CC(=O)NC12CC3CC(C1)CC(C(=O)Nc1nc4c(C)cccc4s1)(C3)C2
 : -18 | -1% | . | -2.9% | -16% | -10% | -6
Cc1cccn2c(=O)c3cc(C(=O)NCC4CCCO4)c(=N)n(CC4CCCO4)c3nc12 (stereo not drawn)
 : 3 | 48%[15.4 µM] | 0.5 | . | 9% | 14% | -6
Cc1ccc(S(=O)(=O)Nc2nc(N)n(-c3ccccc3)n2)cc1
 : 3 | 6%[15.4 µM] | -1.0 | . | 2% | 10% | 0
COc1ccc(N2CC(C(=O)NCCN3C(=O)S/C(=C\c4cccnc4)C3=O)CC2=O)c(OC)c1 (stereo not drawn)
 : -4 | -35%[inhibitor] | . | -0.6% | -6% | . | 25
O=C(CSc1nnnn1-c1ccccc1)NC1CCCc2ccccc21 (stereo not drawn)
 : 2 | -97%[inhibitor] | 3.1 | 1.1% | -14% | 7% | 15
O=c1[nH]cnc2cc(-c3ccccc3)sc12
 : ? | 9% | 0.0 | -19% | -6% | -6% | -9
Cc1cccc(NC(=O)CCC2CCN(C(=O)c3ccc(C)s3)CC2)c1
 : 33 | -22% | . | 0.6% | -43% | 6% | -18
O=C(Cc1ccc(Cl)cc1)N1CCN(c2ccccc2)CC1
 : -2 | ? | -24 | -2.2% | 1% | -9% | -13
C=CC[C@H](CC(=O)N(CCO)Cc1ccccc1)C(=O)N[C@H](COC(=O)[C@@H](CC=C)Cc1ccc(F)cc1)C(C)(C)C
 : -4 | . | . | 1.6% | ? | . | .
CCSC1=NCCN1S(=O)(=O)c1ccc2ccccc2c1
 : . | -21% | 0.5 | 0.8% | -16% | -22% | -18
O=S(=O)(Nc1ncccn1)c1ccc(NC(=S)Nc2cccc(Cl)c2)cc1
 : . | . | 1.3 | . | . | 56µM* | 8
COc1ccc(/C=N/S(=O)(=O)c2ccc(C)cc2)cc1
 : 5 | -13%[15.4 µM] | 1.0 | . | -2% | 10% | 16
c1ccc2[nH]c(CSc3nc4ccccc4s3)nc2c1
 : -2 | 11% | 4.8 | -9.1% | -1% | -3% | 1
O=C(C1=C(O)C(=O)N(Cc2ccccc2)C1c1cccnc1)c1ccco1 (stereo not drawn)
 : -2 | 43%[15.4 µM] | . | -16% | -7% | . | .
O=c1c2c(nc3nc[nH]n13)CCC2
 : 3 | -69%[inhibitor] | 6.0 | 1.6% | 11% | -8% | 0
CC1=CC(=C(c2ccc(N)cc2)c2ccc(N)cc2)C=CC1=N
 : . | . | 4.5 | -3.0% | . | ? | .
CCCOc1cccc(C(=O)N(Cc2ccc(OC)c(OC)c2)C2CCS(=O)(=O)C2)c1 (stereo not drawn)
 : -9 | -33%[inhibitor] | 3.7 | 0.9% | -11% | 13% | -8
C#CCNC(=O)C1=C[C@@H](c2ccc3c(c2)OCO3)C[C@@H](OCc2ccc(CO)cc2)O1
 : -14 | 12% | . | -4.8% | -3% | . | .
C#CCN(C[C@H]1[C@H](OC(=O)NCc2ccco2)[C@H](OC(=O)NCc2ccco2)C[C@H]2C(=O)N(c3ccccc3)C(=O)[C@@H]12)S(=O)(=O)c1ccc(C)cc1
 : 0 | ? | . | -2.4% | . | . | .
CC(CC(=O)Nc1nnc(CC(C)(C)C)s1)c1ccccc1 (stereo not drawn)
 : . | 2% | -1.8 | 3.1% | 11% | ? | 3
COc1c(F)c(F)c(C(=O)Nc2ccccc2N2CCN(C(=O)C(C)C)CC2)c(F)c1F
 : -4 | -36%[inhibitor] | 1.7 | -3.3% | 1% | 18% | -13
CN(Cc1ccccc1)C(=O)CNC(=O)C12CC3CC(CC(C3)C1)C2
 : -7 | 0% | . | -3.3% | -5% | . | 28
C=C(C)CN1C(=O)C2(OCCO2)c2ccccc21
 : -3 | -40%[inhibitor][15.4 µM] | -14 | . | 5% | 7% | 4
CCCCNC(=S)N1CCn2cccc2C1c1ccccc1 (stereo not drawn)
 : -8 | ? | 0.9 | . | -7% | 7% | -13
CCC1Oc2ccc(C)cc2N(CC(=O)NCCCN2CCOCC2)C1=O (stereo not drawn)
 : 0 | 9%[15.4 µM] | -0.3 | 1.1% | 10% | 11% | -9
O=C(NCc1cccnc1)Nc1cccc(Cl)c1
 : -16 | 23% | 1.4 | -1.9% | 7% | 4% | -10
C=CCOc1cccc(CNc2cccc(C(=O)O)c2)c1
 : . | ? | -1.6 | 4.3% | -8% | 5% | 10
CC(C)=C1C2CCC1C1C(=O)N(c3nc(-c4ccccc4)c(C)s3)C(=O)C21 (stereo not drawn)
 : 1 | 6% | 1.4 | -0.9% | ? | -9% | ?
CC#CCOC(=O)c1c(C)nc2sc3c(c2c1N)CC[C@@H](O)C3
 : . | . | 24 | ? | . | 8% | .
CN=CC1=C(O)c2ccccc2C1=O
 : 1 | -16% | 1.5 | 1.0% | 12% | 25% | -3
CC1N(O)C(c2ccc(Cl)cc2Cl)N(O)C1(C)C (stereo not drawn)
 : -1 | -1% | -1.9 | -1.8% | 6% | 4% | -10
NC(=O)C1CCN(C(=O)C2CC(=O)N(c3ccc4c(c3)OCCO4)C2)CC1 (stereo not drawn)
 : . | -14% | . | -0.6% | 11% | . | -9
COc1ccc(-c2nn(-c3ccccc3C)cc2CNC(C)Cn2cncn2)cc1F (stereo not drawn)
 : -5 | ? | 0.1 | . | -7% | 12% | -6
COC(=O)c1c(NC(=O)CSc2nnc(-c3ccco3)n2C)sc(C)c1C
 : 3 | 0% | 3.5 | 1.1% | -3% | 4% | -3
COc1ccc(C)cc1NC(=O)CN1C(=O)C(=O)N(C2CCCC2)C1=O
 : -1 | 4% | . | -2.7% | -8% | . | -16
COc1ccc(/C(O)=C2/C(=O)C(=O)N(CCCC(=O)O)C2c2ccc(OC)cc2)cc1 (stereo not drawn)
 : -1 | 23% | 0.5 | 1.0% | -1% | 18% | -6
CCC(=O)NC(C)C(c1cccs1)N1CCN(c2ccccc2)CC1 (stereo not drawn)
 : -8 | -31%[inhibitor] | 4.1 | 2.3% | 13% | 6% | -14
COC(=O)c1ccc(CN2CCCC(CO)(Cc3ccccc3F)C2)cc1 (stereo not drawn)
 : -2 | -7% | 4.9 | -0.7% | 3% | -21% | -1
Nc1nc(Nc2ccc(Cl)cc2)nc2ccccc12
 : 7 | -67%[inhibitor] | 1.4 | ? | -5% | ? | 28
CCN(CC(=O)N1CCN(Cc2ccccc2)CC1)S(=O)(=O)c1ccc(F)cc1
 : -2 | -4%[15.4 µM] | 1.5 | 1.4% | 9% | 19% | 0
CC1CCCN(C(=O)c2ccncc2)C1 (stereo not drawn)
 : 3 | -20% | 4.2 | -2.1% | 9% | 11% | -29
COc1ccc(S(=O)(=O)N2CCCCC2)cc1NC(=O)Cc1ccsc1
 : 6 | -4% | . | -8.2% | -26% | . | -4
Cc1cc(-c2csc(Nc3ccccn3)n2)ccc1F
 : -26 | -7%[15.4 µM] | -0.3 | -1.9% | -11% | 17% | 5
Cc1nonc1C(=O)N/N=C/c1ccc(O)cc1O
 : . | 5%[15.4 µM] | -0.9 | . | -14% | 5% | 7
CN1C(=O)/C(=C/c2ccc(C(=O)Nc3ccc(O)cc3C(=O)O)cc2)SC1=S
 : . | -49%[inhibitor] | . | 0.0% | -12% | ? | ?
Cn1nc(C(=O)NCc2ccc(F)cc2)c2c1-c1ccccc1S(=O)(=O)C2
 : -2 | -1% | -0.2 | -6.3% | -14% | 12% | -4
CCOC(=O)C1=C(COC(=O)/C=C/c2cccc(F)c2)NC(=O)NC1C (stereo not drawn)
 : -5 | -49%[inhibitor] | . | . | 5% | . | .
COc1cc(C(=O)OC(C)CN2CCN(C)CC2)cc(OC)c1OC (stereo not drawn)
 : 9 | -20% | 5.0 | -4.3% | 14% | 9% | 0
COc1ccc(C(=O)NCC(=O)OCC(=O)N(C)c2ccccc2)cc1
 : 0 | 26% | 0.3 | 2.5% | 2% | 19% | ?
